GLA inh pH 4.5: qHTS Assay for Inhibitors of Human alpha-Galactosidase at pH 4.5; Alpha-galactosidase A (Homo sapiens), P06280; activity change, negative = inhibition, % at 105 µM; AID 1467, 2008; purified enzyme, 4-MU-alpha-Gal fluorescence, pH 4.5; 230,000 tested, under 10 active; inconclusive = small, poorly fitted or top-dose-only inhibition, or a rising curve; inactive = flat fitted curve, though single readings scatter; no compound was filed as active;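 further: 0% = full activity with enzyme and -100% = basal without enzyme; dose as in the result columns while the protocol names 77 µM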
miR-21 FLuc: qHTS Assay for Modulators of miRNAs and/orActivators of miR-21; 340,000 tested, under 10 active; HeLa miR-21 FLuc reporter, luciferase, 48 h; AID 2288, 2010; Potency, µM (titrated, usually from 38.3 µM), without a hit: at the top dose reporter change, positive = more light; active = well fitted rising curve with a large enough effect; inconclusive = small, poorly fitted or top-dose-only effect; inactive = no such curve, though single readings can be large or run the other way;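 further: % of control where 0% means no effect; miR-21 action dims this reporter so a rising signal means less miR-21 action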
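Compounds were titrated across several concentrations (up to approximately 40 uM) and incubated 48 hours with HeLa miR-21-FLuc reporter cells (miR-21 target sequence downstream of FLuc, endogenous miR-21). Readout was firefly luciferase luminescence after lytic detection reagent.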
Rango complex inh: qHTS Assay for Inhibitors of Rango (Ran-regulated importin-beta cargo) - Importin beta complex formation; Importin subunit beta-1 (Homo sapiens), Q14974; Rango CFP/YFP FRET sensor + importin beta, 45 min; Potency, µM (doses to about 92.2 µM), without a hit: at the top dose inhibition of complex formation; 340,000 tested, 0.031% active; AID 540263, 2011; active = rising FRET ratio curve, often small or poorly fitted; inconclusive = mostly compound fluorescence or quenching in the first reads; inactive = flat curves in all reads;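 further: potency means the concentration at half of the fitted maximal effect; 0% = DMSO wells and 100% = buffer wells lacking importin beta; nearly all actives have a fitted effect of over 15% in size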
Target sequence (Q14974 whole entry, looked up): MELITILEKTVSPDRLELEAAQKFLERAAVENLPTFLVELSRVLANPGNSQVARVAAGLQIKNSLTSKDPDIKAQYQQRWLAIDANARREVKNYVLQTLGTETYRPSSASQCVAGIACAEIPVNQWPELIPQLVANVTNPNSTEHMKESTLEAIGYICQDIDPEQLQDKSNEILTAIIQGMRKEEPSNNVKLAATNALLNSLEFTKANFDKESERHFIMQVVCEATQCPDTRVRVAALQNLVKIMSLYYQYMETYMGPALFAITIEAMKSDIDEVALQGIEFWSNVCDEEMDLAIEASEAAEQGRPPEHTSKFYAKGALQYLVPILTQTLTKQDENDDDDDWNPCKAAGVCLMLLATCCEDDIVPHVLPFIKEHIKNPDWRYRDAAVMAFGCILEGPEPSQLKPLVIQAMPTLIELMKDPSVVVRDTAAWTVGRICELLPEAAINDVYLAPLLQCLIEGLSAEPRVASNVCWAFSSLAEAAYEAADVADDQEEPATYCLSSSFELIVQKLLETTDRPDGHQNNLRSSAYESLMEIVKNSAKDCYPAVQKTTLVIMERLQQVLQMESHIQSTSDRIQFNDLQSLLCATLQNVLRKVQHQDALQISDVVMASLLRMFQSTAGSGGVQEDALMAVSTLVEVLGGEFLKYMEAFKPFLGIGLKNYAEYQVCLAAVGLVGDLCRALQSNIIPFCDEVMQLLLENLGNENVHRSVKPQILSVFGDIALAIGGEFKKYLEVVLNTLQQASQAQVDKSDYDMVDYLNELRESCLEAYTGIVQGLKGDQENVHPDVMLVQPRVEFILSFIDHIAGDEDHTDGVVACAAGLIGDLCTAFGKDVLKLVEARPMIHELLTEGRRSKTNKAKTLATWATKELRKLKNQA
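FRET biosensor Rango (snurportin 1 IBB between N-terminal EYFP and C-terminal Cerulean), 50 nM in PBS/1 mM DTT/0.02% Tween-20/0.1% BSA, preincubated 5 min RT with compound; 0.125 microM importin beta added, 45 min RT, CFP/YFP FRET ratio read.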
Rango release inh: qHTS Assay for Inhibitors of RanGTP induced Rango (Ran-regulated importin-beta cargo) - Importin beta complex dissociation; Potency, µM (titrated, usually from 46.1 µM), for the others: at the top dose activity change, negative = inhibition; Biochemical FRET Rango-importin beta, RanGTP-induced dissociation; 340,000 tested, 0.071% active; Snurportin-1 (Homo sapiens) + GTP-binding nuclear protein Ran (Homo sapiens) + Importin …; active means falling FRET ratio curve, often poorly fitted, with flat reads before Ran was added; inconclusive means other falling curves, or compound fluorescence or quenching; inactive means flat or rising ratio curve;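 further: potency means the concentration at half of the fitted maximal effect; % of control where 0% means no effect; nearly all actives have a fitted effect of over 45% in size; -100% = wells without RanGTP and RCC1; the record marks most hits as doubtful in a second field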
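Rango (0.1 uM)–importin beta (0.25 uM) complex; RanGTP-RCC1 trigger; 45 min RT; CFP/YFP FRET read.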
* marks the source's active call; other numbers are inactive results; ? = inconclusive; / = no result given; & = joins results of further samples. Some of the compounds tested; the hit share may differ from the screen's.

SMILES | GLA inh pH 4.5 | miR-21 FLuc | Rango complex inh | Rango release inh
CCOC(=O)C1(c2ccccc2)CCN(CC(=O)Nc2ccc(C)cc2)CC1 | -8 | 5% | -4.0% | 5%
c1ccc(CNCCc2ccc3c(c2)OCO3)nc1 | -10 | -9% | -1.2% | -2%
NCCCP(=O)(O)CCc1ccccc1 | 6 | 0% | -1.1% | 0%
c1cc2c(cc1CN1CCNCC1)OCO2 | / | -6% | 1.3% | -4%
O=C(Oc1ccc(-c2nnco2)cc1)N1CCCCC1 | -11 | -31% | -1.6% | 11%
O=C1NC(=O)C2(Cc3ccccc3N3CCCC32)C(=O)N1Cc1ccccc1 (stereo not drawn) | 8 | 1% | ? | ?
COc1ccc(OC)c(-n2c(O)c(C=NCc3ccc4c(c3)OCO4)c(=O)[nH]c2=O)c1 | -3 | -1% | 1.7% | 16%
C=CCn1c(O)c(C(CC)=NCc2cc(OC)cc(OC)c2)c(=O)[nH]c1=O | -9 | 17% | 1.3% | 1%
COc1ccc(OC)c(-n2c(O)c(C=Nc3c(C)n(C)n(-c4ccccc4)c3=O)c(=O)[nH]c2=S)c1 | -13 | -1% | ? | -24%
CCCn1cc2c3c(cccc31)C1CC(C)CN(C)C1C2 (stereo not drawn) | -8 | -6% | / | /
COc1ccc(-n2c(C)nc3cc(C(=O)N4CCC5(CC4)OCCO5)ccc32)cc1 | -8 | 11% | 0.2% | 12%
CCCCCCn1c(=O)c(C(=O)Nc2ncccc2O)c(O)c2ccccc21 | / | -3% | -1.2% | -6%
CCCCN1C(=O)/C(=C/c2ccc(N(C)C)cc2)C(=O)N(Cc2ccco2)C1=O | 0 | 2% | ? | ?
Cc1cc(C)nc(/N=C(\N)c2c(O)[nH]c(=O)[nH]c2=O)n1 | -17 | -3% | 0.4% | 0%
CC(C)(C)C(=O)O[C@H]1CC[C@@]2(C)C(=CC(=O)C3C2CC[C@]2(C)C(=O)CCC32)C1 (stereo partly drawn) | / | / | -0.6% | 1%
Cc1ccc(CN2CCN(C)CC2)c(C)c1 | 0 | -2% | -0.5% | 6%
N#C/C=C/C#N | / | / | -3.9% | ?
CCC(=NCCc1ccccc1)c1c(O)n(C)c(=O)n(C)c1=O | 3 | 7% | -1.2% | 0%
CCOc1cc2c(cc1OCC)-n1cccc1C(c1ccc(OC)c(OC)c1)NC2 (stereo not drawn) | / | 7% | -1.4% | 1%
CC1CN1P(=S)(c1ccccc1)N1CC1C (stereo not drawn) | / | / | -2.1% | ?
CN1CCN(Cc2ccc(Br)s2)CC1 | -3 | -3% | 2.7% | 0%
COc1ccc(CC(=O)N2CCN(C)CC2)cc1OC | 1 | 4% | -1.6% | 1%
Cc1cc(C(=O)OCC(=O)Nc2ccccc2F)c(C)n1C1CC1 | / | / | -1.8% | -8%
c1cc(CNCCc2ccc3c(c2)OCO3)ccn1 | / | -8% | -0.5% | 14%
CCC(NC(=O)OC(C)(C)C)C(=O)Oc1cc(C)cc2oc(=O)c3c(c12)CCC3 (stereo not drawn) | -5 | -1% | 12% | 0%
CCCC(=O)OCC[N+](C)(C)C | / | -1% | 3.4% | -13%
O=C(c1ccc(F)c([N+](=O)[O-])c1)N1CC2CC(C1)c1cccc(=O)n1C2 (stereo not drawn) | / | -1% | 4.1% | 7%
Cc1ccc(/C=C2\C(=O)NC(=O)N(Cc3ccccc3Cl)C2=O)o1 | 0 | -7% | ? | ?
CC(C)CCCn1c(O)c(/C=C2/C=CC=N2)c(=O)[nH]c1=O | -8 | 24% | ? | -16%
COC(=O)C1=C(c2ccc(C(C)=O)cc2)C[C@@H]2CC[C@H]1N2C(=O)NCc1ccc(F)cc1 | / | / | 3.6% | 0%
CCCNC(=O)N1[C@H]2CC[C@@H]1C(C(=O)OC)=C(c1ccc(OC)c(OC)c1)C2 | / | / | -0.4% | 6%
CC(C)(C)NS(=O)(=O)c1ccc(OCC(=O)N2CCN(Cc3ccccc3)CC2)cc1 | 1 | 11% | 0.1% | -13%
CC1(C)C2([N+](=O)[O-])CN3CN(C2)CC1([N+](=O)[O-])C3 | -3 | 8% | 4.0% | -14%
COc1ccc(NP(=O)(Oc2ccccc2OC)Oc2ccccc2OC)cc1 | -5 | 8% | -0.9% | -3%
CSc1ccc(CN2CCN(C(=O)COc3cccc(C)c3)CC2)cc1 | -5 | 1%&14% | -0.4% | 8%
COC(=O)C1=C(C(=O)OC)SC2(S1)C(C(=O)OC)=C(C(=O)OC)Sc1c2ssc1=O | / | / | 0.4% | -10%
O=C1Nc2ccccc2C(c2ccccc2)=NC1O (stereo not drawn) | / | -4% | -2.1% | -2%
CC(=O)NC(Cc1ccc(N(CCCl)CCCl)cc1)C(=O)O (stereo not drawn) | -4 | -1% | -3.6% | -3%
CN(C)c1ccc(/C=C/C=C/c2sc3ccccc3[n+]2C)cc1 | 2 | ? | 0.4% | -21%
Cc1cc(NC(=O)CCl)nn1C | -2 | 25% | 0.4% | 0%
COc1ccc(NP(=O)(Oc2ccc(Cl)cc2)Oc2ccc(Cl)cc2)cc1OC | -7 | -4% | -1.5% | 11%
O=[N+]([O-])[N-][n+]1cnn(Cc2ccccc2)c1 | 2 | -2% | 1.7% | 18%
CCCCn1c(O)c(C(CC)=NC(C)c2ccccc2)c(=O)[nH]c1=O (stereo not drawn) | -14 | 26% | 0.4% | -15%
COC(=O)CNC(=O)c1cn(CCC#N)nc1-c1ccc(F)cc1 | 9 | 2% | -1.8% | 13%
CN1CCN(c2c[nH]c(=O)[nH]c2=O)CC1 | -1 | -2% | -0.6% | 0%
CCOC(=O)C(O)(c1ccc(N(C)C(=O)c2ccc(Cl)c(Cl)c2)cc1)C(F)(F)F (stereo not drawn) | -5 | -4% | 1.7% | 4%
CN1CCN(c2nc([N+](=O)[O-])nn2C)CC1 | 3 | -7% | 0.0% | 11%
N#C/C(=C(/O)c1ccc(S(=O)(=O)N(CCCl)CCCl)cc1)c1nc2ccccc2[nH]1 | -4 | -21% | -0.4% | 4%
COC(=O)COc1ccc(/C=C2\C(=O)NC(=S)N(c3ccc(C)cc3)C2=O)cc1OC | / | -2% | ? | -10%
CC(C)c1ccc(N2C(=O)NC(=O)/C(=C\c3cnc(-c4ccccc4)nc3)C2=O)cc1 | 3 | -8% | 2.7% | 1%
COc1ccc(CCNC2CCCCC2)cc1 | 5 | -2% | -4.2% | 9%
Cc1cc(/C=C2\C(=O)NC(=O)N(Cc3ccccc3)C2=O)c(C)n1C1CC1 | -15 | -1% | ? | ?
CC1=CC(=O)OC2CC3OC4C[C@@H](C)C5OC6CC7O[C@]8(C)C/C=C\C9OC%10CC%11OC(CC(C)CO)CC(O)[C@]%11(C)OC%10CC9OC8C[C@]7(C)O[C@]6(C)CCC5OC4C[C@]3(C)OC12 (stereo partly drawn) | 4 | 2% | 1.5% | 0%
Cc1cc(C)cc(-n2c(C)cc(/C=C3\C(=O)NC(=O)N(C)C3=O)c2C)c1 | -2 | -13% | -1.7% | -10%
NC(=O)c1c(NC(=O)c2ccc(S(=O)(=O)N(CCCl)CCCl)cc2)sc2c1CCCCC2 | 1 | 1% | ? | 3%
OC(c1ccccc1)(c1ccccc1)c1ccncc1 | -6 | -10% | 1.7% | 3%
NC(=O)c1ccc(N=Nc2c(O)[nH]c(=O)[nH]c2=O)cc1 | -11 | -2% | / | /
CC(=O)OC1CC(OC2C(O)CC(OC3C(O)CC(OC4CCC5(C)C(CCC6C5CCC5(C)C(C7=CC(=O)OC7)CCC65O)C4)OC3C)OC2C)OC(C)C1OC1OC(CO)C(O)C(O)C1O (stereo not drawn) | / | / | 0.3% | 5%
CCOC(=O)C1=Nc2ccccc2/C1=C\c1c(O)n(C)c(=O)n(C)c1=O | -3 | 4% | 0.3% | 8%
CC(=O)O/C(=C1\CC2C3CC=C4CC(OC(C)=O)CCC4(C)C3CCC2(C)C1=O)C(F)(F)F (stereo not drawn) | / | / | 4.1% | 3%

An excerpt from further up:
SMILES | GLA inh pH 4.5 | miR-21 FLuc | Rango complex inh | Rango release inh
Cc1cc(C)cc(-n2c(C)cc(/C=C3\C(=O)NC(=O)N(C)C3=O)c2C)c1 | -2 | -13% | -1.7% | -10%
NC(=O)c1c(NC(=O)c2ccc(S(=O)(=O)N(CCCl)CCCl)cc2)sc2c1CCCCC2 | 1 | 1% | ? | 3%
OC(c1ccccc1)(c1ccccc1)c1ccncc1 | -6 | -10% | 1.7% | 3%
NC(=O)c1ccc(N=Nc2c(O)[nH]c(=O)[nH]c2=O)cc1 | -11 | -2% | / | /
CC(=O)OC1CC(OC2C(O)CC(OC3C(O)CC(OC4CCC5(C)C(CCC6C5CCC5(C)C(C7=CC(=O)OC7)CCC65O)C4)OC3C)OC2C)OC(C)C1OC1OC(CO)C(O)C(O)C1O (stereo not drawn) | / | / | 0.3% | 5%
CCOC(=O)C1=Nc2ccccc2/C1=C\c1c(O)n(C)c(=O)n(C)c1=O | -3 | 4% | 0.3% | 8%

Further structures follow:
SMILES | GLA inh pH 4.5 | miR-21 FLuc | Rango complex inh | Rango release inh
CC/C(=N\N1CCCCC1)c1c(O)[nH]c(=O)[nH]c1=O | -7 | -27% | -0.8% | 5%
CC(=O)c1c(C)[nH]c(C(=O)N2CCC3(CC2)OCCO3)c1C | -1 | -4% | 1.1% | 9%
COC(=O)C1=C(c2ccc(F)cc2OCc2ccccc2)C[C@@H]2CC[C@H]1N2C(=O)NCCOc1ccccc1 | / | / | -0.4% | -14%
COCCNC(=O)CN1C(=O)CN=C(c2ccccc2)c2ccccc21 | 2 | 4% | 1.2% | 21%
Cc1cccc(-c2nc3ccccc3c(=O)n2-n2cccc2)c1 | -1 | 5% | 1.7% | 3%
C=CCn1c(O)c(/C(C)=N/N2CCCCCC2)c(=O)[nH]c1=O | -4 | 0% | 0.7% | -18%
O=C(CF)NC(NC(=S)Nc1ccccc1O)C(Cl)(Cl)Cl (stereo not drawn) | -2 | 7% | -3.4% | 0%
CCCCCn1c(=O)c(C(=O)Nc2cc(C)ccn2)c(O)c2ccccc21 | / | -19% | -4.2% | -6%
CCOC(=O)CCN=Cc1c(O)n(-c2ccc(Br)cc2)c(=O)[nH]c1=O | 0 | -4% | 0.3% | -2%
COc1cc(C2c3cc4c(cc3CC3COC(=O)C32)OCO4)cc(OC)c1OC (stereo not drawn) | / | / | ? | -13%
CN1CCN(c2c(C#N)c(C(F)(F)F)nn2C)CC1 | 3 | 1% | -0.1% | 26%
COc1ccc(-n2c(SCCN(C)C)nc3ccccc3c2=O)cc1 | -5 | -2% | -4.7% | 22%

An excerpt of these results, in CSV form.
compound,GLA inh pH 4.5,miR-21 FLuc,Rango complex inh,Rango release inh
Cc1cccc(-c2nc3ccccc3c(=O)n2-n2cccc2)c1,-1,5%,1.7%,3%
CCOC(=O)CCN=Cc1c(O)n(-c2ccc(Br)cc2)c(=O)[nH]c1=O,0,-4%,0.3%,-2%
CCCCCn1c(=O)c(C(=O)Nc2cc(C)ccn2)c(O)c2ccccc21,/,-19%,-4.2%,-6%

(continued)
SMILES | GLA inh pH 4.5 | miR-21 FLuc | Rango complex inh | Rango release inh
CC(=Nc1ccccc1N)c1c(O)n(C)c(=O)n(C)c1=O | / | -46% | -1.9% | -5%
CCOc1ccc(-n2c(O)c(C=NCCCn3ccnc3)c(=O)[nH]c2=O)cc1 | -8 | -2% | 2.4% | 8%
CC=C(CC)C1(CCC)C(=O)NC(=S)NC1=O | / | / | -5.8% | 13%
CCC1CN1P(=S)(N1CC1CC)N1CC1CC (stereo not drawn) | / | / | -0.3% | 3%
CCC1(C)CN(S(=O)(=O)OCC(Cl)(Cl)Cl)C(=O)N1 (stereo not drawn) | / | -4% | 0.8% | 6%
COP(=O)(OC)C1(O)C(=O)Nc2ccc(Br)cc21 (stereo not drawn) | -7 | 11% | 1.0% | -2%
Cc1nc2cc(F)ccc2n1C1CCN(Cc2nnnn2CCc2ccccc2)CC1 | -5 | -5% | -2.9% | 2%
O=c1[nH]c(=O)n(-c2ccccc2)c(O)c1/C=C1/C(c2ccccc2)=Nc2ccccc21 | -2 | -13% | ? | -14%

Bioassay records from PubChem.
